High-throughput results: PubChem, Fisher Drug Discovery Resource Center
NPYLR7 agonist = activates Aedes aegypti NPYLR7 receptor; HEK293T NPYLR7/Galpha15, GCaMP6s calcium fluorescence; activation, % at 10 µM; hit rate 0.15% among 270,000; AID 1259423; in the data active = activation above about 40%;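 also: 0% = vehicle and 100% = reference agonist at the receptor; some compounds past the cut are filed as inactive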
NPYLR7 agonist max-min = recorded beside NPYLR7 agonist, whose call it bears; activation, %; measured here: Max-Min RFU normalised activation; some inactives read as strong as hits;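 span of the calcium signal over five minutes; 0% = vehicle and 100% = native peptide agonist; compound fluorescence can raise it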
* hit, by the source's call; & = joins results of further samples.

SMILES	NPYLR7 agonist	NPYLR7 agonist max-min
CC1(C)CC2CC(C)(CN2C(=O)c2cc3c(s2)CCCC3)C1 (centres undefined)	-0.9	-9.2
O=C(Nc1cccc(F)c1)N1CCSC12C(=O)N(Cc1ccc(F)c(F)c1)c1ccccc12 (centres undefined)	-6.9	-4.3
CC1(C(=O)Nc2ccccc2F)CCN1C(=O)CC1CCCC1 (centres undefined)	5.5	1.1
CC(C)c1ccc(NC2CCCN(CC(=O)Nc3cnn(C)c3)C2)cc1 (centres undefined)	10.1	5.3
Cc1cnn(Cc2cccc(F)c2)c1NC(=O)C(=O)N1CCCCC1C (centres undefined)	17.8	8.2
Cc1cccc(CN2CCN(C(=O)c3cn4ccsc4n3)C(C)C2=O)c1 (centres undefined)	-12.3	-14.4
C[C@@H]1CC[C@]2(C(=O)O)CC[C@]3(C)C(=CCC4[C@@]5(C)CC[C@H](O)C(C)(C)C5CC[C@]43C)C2[C@H]1C (some centres undefined)	-4.7	-6.4
COc1nc(-c2ccc(C(F)(F)F)cc2)n(-c2ccc(NC(=O)C(c3ccccc3)c3ccccc3)cc2)n1	-11.6	-13.9
CC(Cc1cccs1)NC(=O)CCNC(=O)c1ccc(F)cc1 (centres undefined)	4.1	0.4
c1ccc(C(c2nnnn2-c2ccccc2)N2CCOCC2)cc1 (centres undefined)	5.3	5.7

Reprinted from the part before: four entries, followed by the next part.
SMILES	NPYLR7 agonist	NPYLR7 agonist max-min
C[C@@H]1CC[C@]2(C(=O)O)CC[C@]3(C)C(=CCC4[C@@]5(C)CC[C@H](O)C(C)(C)C5CC[C@]43C)C2[C@H]1C (some centres undefined)	-4.7	-6.4
COc1nc(-c2ccc(C(F)(F)F)cc2)n(-c2ccc(NC(=O)C(c3ccccc3)c3ccccc3)cc2)n1	-11.6	-13.9
CC(Cc1cccs1)NC(=O)CCNC(=O)c1ccc(F)cc1 (centres undefined)	4.1	0.4
c1ccc(C(c2nnnn2-c2ccccc2)N2CCOCC2)cc1 (centres undefined)	5.3	5.7
COc1ccccc1NC(=O)CSc1nc(=O)n2ccc(C)cc2n1	0.6	-0.9
CSCCC(C)NCCc1nc2c(C)cccc2[nH]1 (centres undefined)	0.3	-3.8
COc1ccccc1-c1cc(C(=O)NC2CCCCNC2=O)n2nc(-c3ccccc3)cc2n1 (centres undefined)	9.8&1.3	8.8&12.9
CCOC(=O)C1=C(C)NC(=S)NC1c1cccc(OC)c1 (centres undefined)	11.6	10.4
CCCCCn1c(C)c(C)n2c3c(=O)n(C)c(=O)n(C)c3nc12	-1.5	22.8
COc1ccc(N(CCC(N)=O)Cc2ccc(F)c3cccnc23)cc1	-0.9	0.3
C=CCN(Cc1cccs1)C(=O)Cn1c(=O)c(C#N)c2n(c1=O)CCC2	3.3	6.2
COc1ccc(N2CCN(c3cc(C(C)(C)C)nc(SCc4ccc(C(=O)NCCN5CCOCC5)cc4)n3)CC2)cc1	3.2	7.4
CC(=O)O[C@@H](C)C(=O)N1CCc2c([nH]c3ccccc23)C1c1ccc(C(F)(F)F)cc1 (some centres undefined)	-10.6	-16.7
CCn1c(CC2CCNCC2)nn(Cc2noc(COC)n2)c1=O	-7.6	-6.2
CCc1noc(CS(=O)C(C)C(=O)Nc2c(F)cccc2F)n1 (centres undefined)	2.2	1.0
COc1ccc(-c2noc(CN3CCOCC3)n2)cc1	-11.7	-12.9
COc1ccc(C2c3c(oc4cc(C)c(Cl)cc4c3=O)C(=O)N2c2cc(C)on2)cc1 (centres undefined)	5.9	1.7
CC(C)(C)C(NS(=O)(=O)CCCC#N)c1cccc(F)c1 (centres undefined)	-0.9	-1.4
CC(C)c1cc(C(=O)N(Cc2nccn2C)C2CC2)nc(N)n1	10.6	7.3
COc1ccc(CN(CC2CCCO2)C(=O)NC(C)C)cc1OS(=O)(=O)c1ccc(NC(C)=O)cc1 (centres undefined)	3.1	9.5
Cc1ccn2c(=O)c(NC(=O)Nc3ccc4c(c3)OCCO4)c(C)nc2c1	-1.7	-2.9
Cc1ccccc1C(=O)N1C(C(=O)NCC2CCCO2)COC12CCN(C(=O)c1cccc(Cl)c1)CC2 (centres undefined)	-1.1	12.6
O=C(NNC(=O)C1CCCO1)c1ccco1 (centres undefined)	-5.6	-11.5
Cc1cc(O)c(C(c2ccncc2)N2CCN(c3ccccn3)CC2)c(=O)n1Cc1ccco1 (centres undefined)	11.2	1.9

Reprinted at random: two compounds from above
SMILES	NPYLR7 agonist	NPYLR7 agonist max-min
CC(C)c1cc(C(=O)N(Cc2nccn2C)C2CC2)nc(N)n1	10.6	7.3
COc1ccc(CN(CC2CCCO2)C(=O)NC(C)C)cc1OS(=O)(=O)c1ccc(NC(C)=O)cc1 (centres undefined)	3.1	9.5

Remaining list, next part
SMILES	NPYLR7 agonist	NPYLR7 agonist max-min
Cc1ccc(N2CC(NC(=O)Nc3nc(C)cs3)CC2=O)cc1 (centres undefined)	4.4	2.8
O=C(NC1CC1)c1coc(CN(Cc2ccccc2)Cc2ccc(C(F)(F)F)cc2)n1	21.6	26.8
COc1ccc(OC)c(NC2=NC3CS(=O)(=O)CC3S2)c1 (centres undefined)	0.1	-2.5
COc1ccc(OC)c(/C=C2\NC(=S)NC2=O)c1	-9.0	-1.6
CC(C(=O)Nc1cc(Cl)ccc1C#N)n1nc(-c2cccs2)ccc1=O (centres undefined)	-1.6	-4.1
CCC(C)N(Cc1ccc(OS(=O)(=O)CC)cc1)C(=O)c1ccc(OC)cc1 (centres undefined)	-8.1	-7.8
CCc1nc2ccc(C(=O)NCCN3CCCC3)cn2c1N(C)Cc1cc2ccccc2s1	-2.8	-7.2
Cn1c(O)c(N=NC(=O)c2cc(Br)ccc2O)c2ccccc21	0.3	6.1
CC(=O)OC(C(=O)N1CCC(c2ccc(F)cc2)CC1)c1ccccc1 (centres undefined)	-6.1	-10.0
CC(=O)NCc1cccc(-c2cccc(NC(C)=O)c2)c1	-1.4	-1.9
CCOc1ccc(C(=O)Nc2ccc(-c3nc4cc(Cl)ccc4o3)cc2)cc1[N+](=O)[O-]	9.4	5.4
COc1cc(C(=O)NCCNc2ccc(Nc3cc(C)ccn3)nn2)cc(OC)c1OC	5.9	-1.2
C=CCC(=O)NC1CC(=O)N(CC2CCCCC2)C1 (centres undefined)	0.1	-2.0
Cc1nc(N2CCCC2C(=O)NCc2cccc(C(F)(F)F)c2)nc2cc(S(C)(=O)=O)ccc12 (centres undefined)	12.5	2.4
COC(=O)CC(=O)N1CCN(c2nccc(-c3ccco3)n2)CC1	-3.1	-9.4
COC(=O)c1cnn2c1NCN(Cc1cccs1)C2	2.6	2.1
Cn1c(-c2ccc(C(C)(C)C)cc2)n[nH]c1=S	3.3	9.1
CCOc1ccc(-c2oncc2-c2ccc(OC)cc2)c(O)c1	2.5	-2.6
Cc1ccc(C(=O)N2CCC(c3ccccc3)CC2)s1	-3.9	-11.4
CCc1oc(C(=O)NCCNS(C)(=O)=O)cc1CN1CCCC1	-4.1	-7.0
COc1cc(S(=O)(=O)NCc2ccco2)ccc1Br	4.3	-1.0
O=C1OC(/C=C/c2ccccc2)=NC/1=C/c1ccccc1Cl	-1.1	-3.7
CCCOc1ccc(S(=O)(=O)NCCCN2CCOCC2)cc1C	7.5	4.7
CCc1c(C(=O)OC)cnn1-c1cc(Nc2c(F)cccc2F)ncn1	7.7	8.5
COc1ccc(C2CCCN2C(=O)c2ccc3c(c2)CCN3S(C)(=O)=O)cc1 (centres undefined)	-6.6	-10.8
Cc1nc(C(F)(F)F)ccc1C(=O)N1CCN(c2nc3nccc(-c4cccnc4)n3n2)CC1	1.3	1.5
COc1ccccc1-c1nn(CN(CC(C)C)C2CCS(=O)(=O)C2)c(=S)o1 (centres undefined)	9.4	11.0
CN(C)c1ccc(N)cc1CN(Cc1ccco1)C(=O)NC(C)(C)C	-2.5	4.5
COCCNC(=O)c1nn(-c2ccc(C(C)C)cc2)c(=O)n(Cc2ccccc2C)c1=O	0.5	7.4
CCOc1ccc(Cc2cc([C@@H]3O[C@H](CO)[C@@H](O)[C@H](O)[C@H]3O)ccc2Cl)cc1	-6.6	-13.8

Given as labelled records: part of the list above.
> Cc1nc(C(F)(F)F)ccc1C(=O)N1CCN(c2nc3nccc(-c4cccnc4)n3n2)CC1
  NPYLR7 agonist: 1.3; NPYLR7 agonist max-min: 1.5

> COc1ccc(C2CCCN2C(=O)c2ccc3c(c2)CCN3S(C)(=O)=O)cc1 (centres undefined)
  NPYLR7 agonist: -6.6; NPYLR7 agonist max-min: -10.8

> CN(C)c1ccc(N)cc1CN(Cc1ccco1)C(=O)NC(C)(C)C
  NPYLR7 agonist: -2.5; NPYLR7 agonist max-min: 4.5

The list goes on:
SMILES	NPYLR7 agonist	NPYLR7 agonist max-min
COCc1nc(NCCNC(=O)c2ccc(F)cc2)c2cnn(C)c2n1	8.5	7.9
Cc1oc2ncn(C)c(=O)c2c1C(=O)OCc1ccc(C#N)cc1	4.3	1.4
COc1cc(-c2nnc(SCc3c(F)cccc3Cl)o2)cc(OC)c1OC	-1.9	5.5
Cc1ccc2c(c1)CCCN2C(=O)c1cc(S(=O)(=O)N(C)C)ccc1N1CCOCC1	4.7	1.9
CCCCn1c(=O)[nH]c(=O)c2c1nc(CSc1nnnn1C1CC1)n2C	1.7	-0.2
O=C(Nc1ccnn1Cc1ccccc1Cl)C1CCC1	0.2	1.5
CCN(CCC(F)(F)F)C(=O)c1cccc(Oc2ccncc2)c1	7.8	3.6
CCCCNC(=O)C1(C)CCCCN1Cc1ccc(OCc2ccccc2)cc1 (centres undefined)	3.9	2.0
Cc1ccc(Cc2nsc(N3CCC(CNC(=O)Nc4ccccc4Br)CC3)n2)cc1	-8.3	3.6
COc1ccc(Cl)cc1NCC(=O)Nc1cnc(C(C)(C)C)nc1	10.2	7.4
CCNC(=O)c1csc(COc2ccccc2F)n1	-21.3	-22.2
Cc1ccc(CNC(=O)CSc2nc(=O)n3cccc(C)c3n2)cc1	1.3	-1.7
CCOc1c(CC)cnc2c1c(=O)n(CC(=O)N(CC)CC)c(=O)n2C	-3.6	-5.8
Cc1csc(NC(=O)c2ccccc2S(C)(=O)=O)n1	0.8	0.5
CCSC1=C(C(C)=O)C(=O)n2c1cc1c2CCCC1	-1.2	-3.2
Cc1ccc(CNC(=O)c2cn(C)c3c(=O)n(Cc4ccccc4)c(=O)[nH]c23)cc1	-3.4	-6.0
COc1ccccc1-c1nc2ccc(C)cn2c1NC(=O)C(C)C	-4.4	1.5
COC(=O)c1cc2n(n1)CCCN(C(=O)c1c(C)nc3sccn13)C2	9.6	7.4
Cc1cccc(C)c1Nc1c(-c2ccccn2)nc2ccc(Cl)cn12	18.9&-3.7	30.2&0.7
O=C(NCCO)c1nnc2n(c1=O)CCN2c1ccccc1	5.6	4.3
Cc1cccc(N(C)C(=O)CNC(=O)NCc2ccc(Cl)cc2)c1	0.4	-3.8
CC(C)N(C)c1onc(-c2ccccc2)c1CN(Cc1ccco1)C(=O)c1cccc(F)c1	-8.1	-5.8
C=CCN1CC(OC(=O)NCCC)CN(C(=O)c2cccs2)CC1=O (centres undefined)	2.1	13.5
O=C(CCl)N(CC(=O)N1CCc2sccc2C1c1ccccc1)C1CC1 (centres undefined)	-8.6	-0.5
Cc1ccc(C(=O)CCC(=O)N2CCC(N3CCOCC3)C2)s1 (centres undefined)	4.7	3.2
Cc1cccc(N2CCN(C(=O)c3ccc4nc(-c5cccc(O)c5)[nH]c4c3)CC2)n1	-3.2	-5.3
COc1cc(OC)cc(C(=O)N(CC(=O)N(CCc2ccccc2)Cc2ccco2)C(C)C)c1	-4.6	5.6
O=Cc1ccc(N2CCC(c3ccccc3)=N2)cc1	-1.5	-7.8
O=C(Cc1csc(-n2cccc2)n1)Nc1ccc(N2CCOCC2)cc1	0.0	0.6
COc1ccc(NS(=O)(=O)N2CCc3ccccc3C2)cn1	0.9	-1.8
c1ccc(CC2CN(Cc3nc4c(s3)CCCC4)CCO2)cc1 (centres undefined)	7.5	4.5
COc1cccc(C2c3c(oc4ccc(C)cc4c3=O)C(=O)N2c2nccs2)c1 (centres undefined)	2.0	2.4
CCCCc1nc(N2CCN(C(=O)c3cccc(Cl)c3)CC2)c2c(-c3ccc4ccccc4c3)noc2n1	17.7	8.0
O=c1c2cccnc2ncn1CC(O)c1ccc(Cl)cc1 (centres undefined)	5.0	3.7
C=CCNC(=O)c1c(-c2c(F)cccc2Cl)noc1C	8.7	9.4
CCOC1CCN(C(=O)c2cc(-c3cccc(Cl)c3)no2)CC1	21.1	19.4
CCCn1nccc1C(=O)N1CCNCC1C(=O)N1CCCC1 (centres undefined)	17.1	10.7
CSc1nc(N)c2ncn([C@@H]3O[C@H](COP(=O)(O)OP(=O)(O)OP(=O)(O)O)[C@H](O)C3O)c2n1 (some centres undefined)	68.3	38.7
COC(C)(C)c1noc(-c2cc(C)on2)n1	9.3	7.2
O=C(CCC1CCCN(C(=O)Cn2nc3ccccc3n2)C1)NCc1ccc(F)c(F)c1 (centres undefined)	9.8	-5.0
Cc1nc2n(n1)C(=O)C(C(c1ccc(Cl)cc1)N1CCC(C(N)=O)CC1)S2 (centres undefined)	2.8	-0.3
Oc1oc(-c2ccc(Br)cc2)nc1C=Nc1ccc(Cl)cn1	3.5	2.8
COCCCNC(=O)c1nn(-c2cccc(C)c2)c(=O)n(Cc2cccc(F)c2)c1=O	20.5	14.5
Cc1nc(C(C)C)sc1C(=O)N1CCCn2nc(C(=O)O)cc2C1	4.1	-3.5
FC(F)(F)C1=NCCN=C(c2ccccc2)C1	13.8	5.9
COc1ccc(S(=O)(=O)Nc2ccc(N(C)C)c(CN(Cc3cccc(F)c3)C(=O)C3CC3)c2)cc1	6.4	9.2
O=C1CCC2(CCN1)CCN(C(=O)c1cnc(-c3cccs3)nc1)CC2	3.5	1.7
Cc1nn(-c2ccc(C(C)C)cc2)c(C)c1CCC(=O)N(C)CCc1ccccn1	-9.2	-15.8

A portion of the library; rates above refer to the full screens.
